Vaccinia mCherry: vaccinia inhibition (mCherry reporter) | Vaccinia virus mCherry reporter infection, fluorescence; about a quarter of the inactives have no number | hit rate 0.63% among 310,000 | Potency, µM (top dose mostly 36.5 µM), for inactives: at the highest dose activity change, negative = inhibition, actives largely listed as inhibitors; active = well fitted inhibition curve with a large enough effect; inconclusive = small, poorly fitted or top-dose-only effect; inactive = no such curve, though single readings can be large or run the other way; tested in A549 cells; further: nearly all actives have a fitted effect of over 35% in size; inactives centre near -10
Vaccinia Venus: inhibitors of vaccinia virus (Venus reporter); Vaccinia virus Venus reporter expression, fluorescence; Potency, µM (titrated, usually from 36.5 µM), for the others: top-dose activity change, negative = inhibition, hits mostly inhibitors; hit rate 0.46% among 330,000; AID 720580; active means well fitted inhibition curve with a large enough effect; inconclusive means small, poorly fitted or top-dose-only effect; inactive means no such curve, though single readings can be large or run the other way; tested in A549 cells; further: nearly all actives have a fitted effect of over 30% in size; inactives centre near -10
* marks the source's active call; other numbers are inactive results; i = inactive; ? = inconclusive; · = no result given; [ ] = dose if it differs, or a comment. On the % scale 0 is the no-effect control and ±100 the full control effect; potency means the concentration at half of the fitted maximal effect.

SMILES	Vaccinia mCherry	Vaccinia Venus
Oc1c(Br)cc2oc3c(c2c1CNCc1ccccc1)CCCC3	-3%	10%
O=C(Nc1ccccc1)C1CC(=O)N(c2ccc3c4c(cccc24)CC3)C1 (configuration not stated)	-30%	-12%
Cc1ccc(-c2onc3ccc(C(=O)/C=C/N(C)C)cc23)cc1	-28%	-28%
CC(C)C(NC(=O)c1ccco1)C(=O)OCc1cc([N+](=O)[O-])cc2c1OCOC2 (configuration not stated)	-4%	-2%
O=C(OCc1cn([C@@H]2C[C@H](c3ccccc3)N(C(=O)c3cccs3)C[C@H]2O)nn1)c1ccccc1	i	-15%
CCC1CCCCN1CCCNC(=O)CS(=O)(=O)Cc1nc(-c2cccc(OC)c2)oc1C (configuration not stated)	-2%[7.34 µM]	-7%[7.34 µM]
CN=C(Nc1ccc(Cl)cc1)c1ccc(C(F)(F)F)cc1	-28%	-19%
C=CCc1ccccc1OCC(O)Cn1ccnc1C (configuration not stated)	-16%	-10%
COc1ccc(/C=C/C(=O)OCCNC(=O)c2ccncc2)cc1OC	i	-13%
CCOC(=O)[C@]12CCC=C1N(Cc1ccc3c(c1)OCO3)C(=O)[C@H](CC(=O)N1CCCCC1)C2	-11%	-12%
O=C(NCc1ccccn1)c1ccco1	i	-2%
COCCNC(=S)Nc1ccc(S(=O)(=O)Nc2cnc3ccccc3n2)cc1	0%	1%
CS(=O)(=O)c1ccc2nc(NC(=O)c3cccc(Cl)c3)sc2c1	-3%	-25%
CC1CCN(c2nc3ccc(C(=O)N4CCN(Cc5ccccc5)CC4)cc3s2)CC1	?	?
COc1ccc(C(C)=O)cc1CSc1nnc2c(Cl)cc(Cl)cn12	-7%	-11%
CSc1oc(-c2ccco2)nc1S(=O)(=O)c1ccc(Br)cc1	i	5%
CCCCCCSc1ccc([C@@H]2[C@H]3C(=O)N(CC)C(=O)[C@H]3[C@]3(C(=O)OC)CCCCN23)cc1OC	-4%	-16%
CCCSc1nsc(NC(=O)CCC)n1	-13%	-8%
Cc1ccc(S(=O)(=O)N2CCC(C(=O)OCc3ccc([N+](=O)[O-])cc3)CC2)cc1	-5%	-8%
CCC1=C2CC[C@H]3C(=O)N(CC)C(=O)[C@H]3[C@H]2[C@@]2(Cc3ccccc3)C(=O)N(Cc3ccccc3)C(=O)N2C1=O	-20%	8%
Nc1c(C(=O)Nc2ccccc2Cl)nnn1Cc1cccc(Cl)c1	-15%	-5%
Cc1noc(C)c1S(=O)(=O)N1CCC(C(=O)N(C)Cc2ccccc2)CC1	-6%	-11%
NS(=O)(=O)c1cccc(NC(=O)c2ccc3nc[nH]c3c2)c1	-15%	0%
CCc1ccccc1NC(=O)CSc1nccn1C	-1%	-6%
Cc1nc2ccccc2nc1/C=C/c1ccc(N(C)C)cc1	-11%	20%
CCc1ccc(OCC(O)CN2CCN(CCO)CC2)cc1 (configuration not stated)	-9%	-2%
COc1cc(=O)n2c(c1C(=O)NC(C)c1ccco1)CCN(C(=O)c1ccccc1SC)CC2 (configuration not stated)	i	0%
O=C(NCC(c1cccs1)S(=O)(=O)c1cccs1)c1ccc(F)c(F)c1 (configuration not stated)	-10%	-6%
COc1ccc2nc(N(Cc3ccccc3)C(=O)CCNC(C)=O)sc2c1	?	-19%
COc1ccc(/C=C2\NC(=O)C(C=NCc3ccccc3)=C2O)cc1	-8%	-14%
Cc1cccc2c1-c1sc(C(=O)Nc3ccc(F)cc3F)cc1CO2	-15%	-17%
Cc1nn(-c2ccc(F)cc2)c(-n2cccc2)c1C(=O)N1CCN(c2ccccc2)CC1	-14%	-5%
O=C(O)CCCNCc1ccccc1F	-8%	-14%
Cn1c(=O)c(=O)n(C)c2cc(S(=O)(=O)CCC(=O)NCc3ccccc3)ccc21	i	-3%
COc1ccc(NCc2nnc(SCC(=O)Nc3ccccc3)n2C)cc1	-20%	-11%
CCc1nnc(NC(=O)C(CC)c2ccccc2)s1 (configuration not stated)	-3%	-7%
CCCN1CCN(c2nnc(-n3cccc3C(=O)Nc3ccccc3C(F)(F)F)s2)CC1	-12%	-7%
COC(=O)c1ccc(N2CCN(C(=O)C3CC3)CC2)c([N+](=O)[O-])c1	-14%	1%
COc1ccc(NC(=O)c2cccc(S(=O)(=O)N3CCc4ccccc43)c2)cn1	-14%	0%
COc1cc(OC)c2c(c1Cl)OC1(C2=O)C(O)=CC(=O)CC1C (configuration not stated)	-2%	-10%
Cc1oc(-c2cccc(Cl)c2)nc1CN1CCCC(C(=O)NCc2ccc(F)cc2)C1 (configuration not stated)	-29%	-12%
CCCC(=O)N1CCC(O)(c2cccc(F)c2)CC1	3%	-2%
CCOC(=O)c1cc2c(=O)n3ccccc3nc2n(CCCOC)c1=NC(=O)c1c(-c2ccccc2Cl)noc1C	3%	-3%
CCc1nc2c(OCCc3cccc(OC)c3)cccn2c1N(C)C(=O)c1cccs1	i	-2%
CN(C(=O)Nc1ccccc1)C1CCS(=O)(=O)C1 (configuration not stated)	·	-8%
CSc1ccccc1NC(=O)CCS(=O)(=O)c1nc(-c2cccs2)cc(C(F)(F)F)n1	2%	17%
CN(C)/C=C(/C#N)C(=O)c1cccc(Oc2ccc(C(C)(C)C)cc2)c1	-10%	-2%
O/N=C/c1ccnc(SCc2ccccc2)n1	?	-16%
O=[N+]([O-])c1cc(Cl)cc(/C=N/NC(=S)Nc2cc(S(=O)(=O)N3CCOCC3)ccc2Cl)c1O	-18%	-9%
O=C1COc2ccc(C(=O)COC(=O)CCOc3ccccc3)cc2N1	i	-12%
CCCC(c1nnnn1C(C)(C)CC)N(Cc1ccco1)Cc1cc2ccc(OC)cc2[nH]c1=O (configuration not stated)	?	?
Cc1cc(C(=O)NCc2cccs2)cs1	-1%	-9%
O=C(O)c1c[nH]n2c(=S)ncnc12	-13%	-8%
COc1ccc(C(=O)Nc2nnc(C(F)(F)F)s2)cc1	-2%	-16%
O=C(COC(=O)Cc1cccs1)Nc1ccc(OC(F)(F)F)cc1	-3%	-17%
CCSc1ccc(C(=O)NCC(=O)O)cc1	-7%	1%
CC1CCN(C(=O)CSc2nnc(CNC(=O)c3ccc(F)cc3)o2)CC1	-11%	-15%
COCCN=C1N[C@@H](c2cccc(C(F)(F)F)c2)C(C(=O)OC)=C(C)N1Cc1ccccc1	i	-22%
O=C(Nc1ccc(F)cc1)C1CC(=O)n2cnnc2N1 (configuration not stated)	i	-8%
Cc1nc2scc(C)n2c(=O)c1S(=O)(=O)N1CCN(c2ccc([N+](=O)[O-])cc2)CC1	-16%[7.34 µM]	-13%[7.34 µM]

Following part.
SMILES	Vaccinia mCherry	Vaccinia Venus
O=S(=O)(CCN(CCS(=O)(=O)C(F)(F)F)CC1CCCO1)C(F)(F)F (configuration not stated)	i	-11%
CCOc1ccccc1NC(=O)C(OC(=O)c1ccc(NC(=O)CC#N)cc1)c1ccccc1 (configuration not stated)	i	-3%
CC1=NN(CCc2ccccn2)C(=O)CC1	-14%	-2%
COC(=O)[C@H](Cc1c[nH]c2ccccc12)NC(=O)NCc1ccccc1	-28%	-8%
Fc1cc2ncn(Cc3ccccc3)c2cc1F	·	-4%

Of the compounds above, 15 contain four or more nitrogen atoms.
SMILES	Vaccinia mCherry	Vaccinia Venus
O=C(OCc1cn([C@@H]2C[C@H](c3ccccc3)N(C(=O)c3cccs3)C[C@H]2O)nn1)c1ccccc1	i	-15%
COCCNC(=S)Nc1ccc(S(=O)(=O)Nc2cnc3ccccc3n2)cc1	0%	1%
CC1CCN(c2nc3ccc(C(=O)N4CCN(Cc5ccccc5)CC4)cc3s2)CC1	?	?
Nc1c(C(=O)Nc2ccccc2Cl)nnn1Cc1cccc(Cl)c1	-15%	-5%
NS(=O)(=O)c1cccc(NC(=O)c2ccc3nc[nH]c3c2)c1	-15%	0%
Cc1nn(-c2ccc(F)cc2)c(-n2cccc2)c1C(=O)N1CCN(c2ccccc2)CC1	-14%	-5%
COc1ccc(NCc2nnc(SCC(=O)Nc3ccccc3)n2C)cc1	-20%	-11%
CCCN1CCN(c2nnc(-n3cccc3C(=O)Nc3ccccc3C(F)(F)F)s2)CC1	-12%	-7%
CCOC(=O)c1cc2c(=O)n3ccccc3nc2n(CCCOC)c1=NC(=O)c1c(-c2ccccc2Cl)noc1C	3%	-3%
O=[N+]([O-])c1cc(Cl)cc(/C=N/NC(=S)Nc2cc(S(=O)(=O)N3CCOCC3)ccc2Cl)c1O	-18%	-9%
CCCC(c1nnnn1C(C)(C)CC)N(Cc1ccco1)Cc1cc2ccc(OC)cc2[nH]c1=O (configuration not stated)	?	?
O=C(O)c1c[nH]n2c(=S)ncnc12	-13%	-8%
CC1CCN(C(=O)CSc2nnc(CNC(=O)c3ccc(F)cc3)o2)CC1	-11%	-15%
O=C(Nc1ccc(F)cc1)C1CC(=O)n2cnnc2N1 (configuration not stated)	i	-8%
Cc1nc2scc(C)n2c(=O)c1S(=O)(=O)N1CCN(c2ccc([N+](=O)[O-])cc2)CC1	-16%[7.34 µM]	-13%[7.34 µM]

Screens: PubChem, National Center for Advancing Translational Sciences (NCATS)
